# Screening data: PubChem BioAssay, Southern Research Institute
# Mtb H37Rv – Confirmatory growth inhibition assay against Mycobacterium tuberculosis H37Rv, potency (AID 1949); 100,000 compounds, 1.6% hits; most inactive calls were filed without a number and no value below 0 was filed; inhibition, % at 10 µg/mL; hits with a dose series show IC50 in µg/mL;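 active = confirmed in a dose series; inconclusive = about 50% or more but not retested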;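 note: bacteria grown 7 days with compound before Alamar blue readout; 0% = untreated bacteria and 100% = reference antibiotic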
# Active calls of the source: *; i = inactive; ? = inconclusive. A portion of the library; the hit share may differ from the screen's.
# Start of the listing, in advance (two entries):
SMILES,Mtb H37Rv
O=C(c1ccc(Cl)c(Cl)c1)N1CCN(c2ccc([N+](=O)[O-])c(NCCc3ccccc3)c2)CC1,3%
COc1ccc(N2C(=O)CC(NC3CCCCNC3=O)C2=O)cc1 (stereo unspecified),i

# The list itself, previewed entries included:
SMILES,Mtb H37Rv
O=C(c1ccc(Cl)c(Cl)c1)N1CCN(c2ccc([N+](=O)[O-])c(NCCc3ccccc3)c2)CC1,3%
COc1ccc(N2C(=O)CC(NC3CCCCNC3=O)C2=O)cc1 (stereo unspecified),i
CCOC(=O)C(Nc1cccc(F)c1)c1ccccc1 (stereo unspecified),i
COc1c(Cl)cc(Cl)cc1C(=O)Nc1ccc(N2CCN(Cc3ccccc3)CC2)cc1,i
CCOC(=O)C(C)Sc1nnc2c3ccccc3n(C)c2n1 (stereo unspecified),i
COc1ccc(C)cc1NC(=O)c1ccc(N(Cc2ccccc2)S(C)(=O)=O)cc1,i
Cc1ccc(OCC(=O)NCc2ccc(Cl)cc2)c(C)c1,2%
CC12CCC(c3c(C(=O)O)nn(-c4ccccc4)c31)C2(C)C (stereo unspecified),i
O=C(COc1ccc(Cl)cc1Br)Nc1ccc(F)c(Cl)c1,i
CN(CC(N)=O)S(=O)(=O)c1ccccc1,i
CCOC(=O)c1ccc(NC(=O)/C(=C\c2ccc(OC)cc2)NC(=O)c2ccccc2Cl)cc1,0%
COC(=O)c1ccc(C)c(NC(=O)CN(c2ccc(OC)c(OC)c2)S(C)(=O)=O)c1,i
COc1ccc(-n2ncc3c(NCCc4ccc(S(N)(=O)=O)cc4)ncnc32)cc1,i
Cc1ccc(CN(c2ccc(C)c(C)c2)S(C)(=O)=O)cc1,i
COCCCN1C(=O)C(O)=C(C(=O)c2ccc(C)o2)C1c1cccc(Br)c1 (stereo unspecified),i
O=C(CN1C(=O)C2CCCCC2C1=O)N1CCN(c2ccc(F)cc2)CC1 (stereo unspecified),i
COc1ccc(C2C(C(=O)Nc3ccccc3)=C(C)NC3=C2C(=O)CCC3)cc1Cl (stereo unspecified),i
CSC1CCCCC1(O)CSc1nc(-c2cccs2)cc(C(F)(F)F)c1C#N (stereo unspecified),i
O=c1[nH]c2n[nH]c(=S)n2c2ccccc12,i
O=c1cc(-c2ccc(Cl)cc2Cl)[nH][nH]1,i
CC1CCCN(CC(O)COc2ccccc2)C1 (stereo unspecified),i
Cc1ccc(NS(=O)(=O)c2ccc(NS(=O)(=O)c3cc(Cl)ccc3Cl)cc2)cc1,i
Cc1c(F)cccc1NC(=O)c1ccccc1Sc1ccccc1C#N,1%
O=C(CSc1nnc(-c2ccncc2)n1-c1ccc(F)cc1)Nc1ccc(Br)cc1,i
NC(=O)C1CCN(C2CC(=O)N(c3ccc(Oc4ccccc4)cc3)C2=O)CC1 (stereo unspecified),i
Cn1c(=O)n(-c2cccc(Cl)c2)c(=O)n1C,i
O=C(Oc1ccc(Nc2ncnc3ccccc23)cc1)c1cccnc1,i
O=C(NCCOc1ccccc1Cc1ccccc1)c1cncc(Br)c1,6%
COc1cccc(C=O)c1OC(=O)Cc1ccccc1,i
CC(=O)C(C)Sc1ncnc2scc(-c3ccccc3)c12 (stereo unspecified),i
CNC(=O)CN(Cc1ccc(Br)cc1)S(=O)(=O)c1ccc(C)cc1,i
Cc1ccc(Oc2ccc(NC(=O)c3ccccc3[N+](=O)[O-])cc2)cc1C,9%
CCOc1ccccc1OC(=O)COc1c(C)cc(Br)cc1C,i
O=C(CCS(=O)(=O)Cc1ccccc1)N1CCCc2ccccc21,i
CC(=O)c1cn(CC(=O)NCc2ccccc2)c2ccccc12,i
O=C(Cn1cnc2ccccc2c1=O)Nc1cccc(C(=O)c2ccccc2)c1,i
Cc1c(NC(=O)CSc2nc3ccccc3c(=O)n2C)c(=O)n(-c2ccccc2)n1C,i
COc1cc(Br)cc2cc(C(=O)NNC(=O)c3ccccc3Cl)c(=O)oc12,i
Cc1cccc(-c2nnc(SCC(=O)Nc3ccc(Br)cc3C(C)C)n2N)c1,i
O=C(O)c1ccc2[nH]c3c(c2c1)CSCC3,i

# Quoted at random: 4 compounds from above
SMILES,Mtb H37Rv
O=C(NCCOc1ccccc1Cc1ccccc1)c1cncc(Br)c1,6%
Cc1cccc(-c2nnc(SCC(=O)Nc3ccc(Br)cc3C(C)C)n2N)c1,i
CC12CCC(c3c(C(=O)O)nn(-c4ccccc4)c31)C2(C)C (stereo unspecified),i
Cc1ccc(NS(=O)(=O)c2ccc(NS(=O)(=O)c3cc(Cl)ccc3Cl)cc2)cc1,i

# The results go on.
SMILES,Mtb H37Rv
COc1cc(C(=S)N2CCN(c3cccc(Cl)c3)CC2)ccc1OCc1ccc(C)cc1,1%
O=C(NCC1COc2ccccc2O1)c1cc2c(=O)n3ccccc3nc2s1 (stereo unspecified),i
COC(=O)c1sc(NC(=O)c2ccc(Cl)c(Cl)c2)c(C(N)=O)c1C,i
c1ccc(-c2ccc(OCCOCCn3cncn3)cc2)cc1,i
COc1ccc(N(CC(=O)NC2CCCC2)S(C)(=O)=O)cc1Cl,i
O=C(CCn1cnc2ccccc2c1=O)Nc1ccccc1Br,i
Cc1cccc(C(=O)NCc2ccccn2)c1[N+](=O)[O-],i
CS(=O)(=O)N(CC(=O)Nc1cc(C(F)(F)F)ccc1Cl)c1ccccc1F,i
COc1ccccc1C1C=C(c2ccc(F)cc2)Nc2ncnn21 (stereo unspecified),3%
COc1ccccc1NS(=O)(=O)c1cccc(C(=O)Nc2ccccc2C(=O)O)c1,i
CC(=O)Nc1ccc2nc(NC(=O)c3cccc4c(Br)cccc34)sc2c1,4%
Cc1ccc(Sc2c(C)nn(C(=O)CNS(=O)(=O)c3ccccc3)c2C)cc1,i
CCCNc1nc(=S)n(-c2ccccc2)c(C)c1C(C)=O,i
Cc1c(Cl)ccc(S(=O)(=O)N2CCOCC2)c1Cl,i
O=C(CSc1nc2ccccc2c(=O)n1-c1ccccc1)N(c1ccccc1)c1ccccc1,4%
COc1ccc(C(=O)Nc2ccc(N3CCN(C(=O)c4ccc(C)cc4)CC3)cc2)cc1Cl,i
COc1ccc(N2C(N)=C(C#N)C(c3ccc(Br)s3)C3=C2CCCC3=O)cc1 (stereo unspecified),i
COC(=O)C1=CN(C2CCCC2)C=C(C(=O)OC)C1c1cccs1,i
CCC(=O)N1CCN(c2ccccc2NC(=O)c2cc(Cl)cc(Cl)c2OC)CC1,6%
COC(=O)c1c(-c2ccc(F)cc2)csc1NC(=O)Cc1ccc(Cl)cc1,9%
CCOC(=O)c1cccc(COC(=O)c2ccc(CS(=O)(=O)Cc3ccccc3)cc2)c1,i
Nc1ccccc1SCC(=O)Nc1ccc(I)cc1,i
CCC(C)NCCCCOc1cc(C)ccc1Cl (stereo unspecified),i
CCOC(=O)N1CCN(S(=O)(=O)c2ccc(NC(C)=O)cc2)CC1,i
COc1cccc(-c2cc(C(=O)Nc3ncccc3Cl)c3ccccc3n2)c1,19%
COc1ccccc1NC(=O)Nc1ccccc1,2%
CCCCC(=O)Nc1ccc(C(=O)Nc2ccc(S(=O)(=O)N3CCCCCC3)cc2)cc1,i
O=C(CN1C(=O)c2ccccc2C1=O)OCc1ccc(S(=O)(=O)Cc2ccccc2)cc1,i
CCC(C)c1ccccc1OCC(=O)Nc1ccccc1C(=O)O (stereo unspecified),1%
FC(F)(F)c1cccc(OCCN2CCCCCC2)c1,i
CCc1nnc(NS(=O)(=O)c2ccc(NC(=O)c3c(Cl)cccc3Cl)cc2)s1,i
CCOc1ccc(C(=O)Nc2cccc(C(=O)OC)c2)cc1,3%
COc1ccc(Cl)cc1NC(=O)c1c(NCc2cccnc2)sc2c1CCC2,49%
COc1ccc(Br)cc1CN1CCN(S(C)(=O)=O)CC1,i
COc1ccc(C2CC(c3cccs3)=NN2C(=O)CN2CCCCC2)cc1 (stereo unspecified),i
COc1ccc(/C(N)=N/OC(=O)N2CCOCC2)cc1,4%
O=C(COc1ccc(S(=O)(=O)Nc2ccc(F)cc2)cc1)NC1CCCC1,1%
CC1=C(C(=O)OCCc2ccccc2)C(c2cccc(Cl)c2Cl)C2=C(CC(C)(C)CC2=O)N1 (stereo unspecified),8%
COc1ccccc1NC(=S)Nc1ccc(Br)c(C)c1,i
Cc1c(NC(=S)NC(=O)c2oc3ccccc3c2C)cccc1-c1nc2ccccc2s1,i

# 4 entries from above, set out differently.
CCOc1ccc(C(=O)Nc2cccc(C(=O)OC)c2)cc1
  Mtb H37Rv = 3%

COc1ccc(Cl)cc1NC(=O)c1c(NCc2cccnc2)sc2c1CCC2
  Mtb H37Rv = 49%

COc1ccc(Br)cc1CN1CCN(S(C)(=O)=O)CC1
  Mtb H37Rv = i

COc1ccc(C2CC(c3cccs3)=NN2C(=O)CN2CCCCC2)cc1 (stereo unspecified)
  Mtb H37Rv = i

# Continuation.
SMILES,Mtb H37Rv
CCCCNC(=O)c1ccc(CSc2ccc(Cl)cc2)cc1,i
CC(C)CNC(=O)CC1Nc2ccccc2NC1=O (stereo unspecified),i
CN(CC(=O)N1CCN(c2ccccc2F)CC1)S(=O)(=O)c1ccc(Cl)cc1,1%
COc1ccc(CC(=O)Nc2sc3c(c2C(N)=O)CCC(C)C3)cc1OC (stereo unspecified),i
N#Cc1ccccc1COc1ccc2ccccc2c1CO,35%
COC(C(=O)Nc1ccc2c(c1)OCO2)c1ccccc1 (stereo unspecified),1%
C=CCN(CC=C)S(=O)(=O)c1ccc(NC(=O)CCc2ccccc2)cc1,i
Cc1ccc(CSc2nnc(NC(=O)c3ccc(Br)cc3)s2)cc1,4%
CC(=O)c1ccc(NC(=S)N2CCCCCC2)cc1,i
Cc1[nH]c2ccccc2c1CCNC(=O)CCC(=O)c1ccccc1,i
O=C(OCC1CCCN2CCCCC12)c1ccc2c(c1)OCO2 (stereo unspecified),i
CCOc1ccccc1C(=O)Nc1cccc(-c2csc(C)n2)c1,3%
CC1CN(C(=S)Nc2ccccc2F)CC(C)O1 (stereo unspecified),i
O=S(=O)(c1ccc(Br)s1)N1CCc2ccccc2C1,i
COc1ccccc1Nc1nc(-c2cc3cccc(OC)c3oc2=O)cs1,1%
S=C(NCCc1ccccn1)NCCN1CCOCC1,0%
CCOC(=O)c1ccc(NC(=S)Nc2ccc(-c3nc4ccc(C)cc4s3)cc2)cc1,25%
CCN(CC)c1ccc(C(=O)NCc2ccco2)cc1,i
CS(=O)(=O)N(CC(=O)Nc1ccc2c(c1)OCCO2)c1ccccc1F,i
CS(=O)(=O)N(CC(=O)Nc1ccc(Br)cc1)c1ccc2c(c1)OCCO2,i

# Compounds shown so far that have a nitro group on carbon, in the order listed:
SMILES,Mtb H37Rv
O=C(c1ccc(Cl)c(Cl)c1)N1CCN(c2ccc([N+](=O)[O-])c(NCCc3ccccc3)c2)CC1,3%
Cc1ccc(Oc2ccc(NC(=O)c3ccccc3[N+](=O)[O-])cc2)cc1C,9%
Cc1cccc(C(=O)NCc2ccccn2)c1[N+](=O)[O-],i

# Continuation:
SMILES,Mtb H37Rv
CCOC(=O)c1ccc(NC(=O)CN(C)S(=O)(=O)c2ccc(OC)cc2)cc1,i
COc1cc(NC(=O)c2ccc(F)cc2)ccc1NC(=O)C(C)C,i
S=c1[nH]nc(-c2ccc3ccccc3n2)n1-c1ccc2c(c1)OCO2,i
C=CCNC(=O)C1CC(=O)N(c2ccc(OCC(=O)Nc3ccc(F)c(Cl)c3)cc2)C1 (stereo unspecified),i
COc1ccccc1C(NC(=O)C1CCCCC1)c1ccc2cccnc2c1O (stereo unspecified),i
Cc1cc(F)ccc1NC(=O)c1cccs1,i
CC(C)C(=O)Nc1cccc(C(=O)NCCc2ccc(S(N)(=O)=O)cc2)c1,i
O=S(=O)(NCCSc1ccccn1)c1ccc(Br)cc1,5%
O=C(CSc1ccccn1)Nc1cc(C(F)(F)F)ccc1Cl,1%
CC12CCC(C(=O)Nc3ccc(I)cc3)(OC1=O)C2(C)C (stereo unspecified),i
COc1ccc(-n2c3c(cc(C(=O)Nc4ccc(C)c(C)c4)c2=O)C(=O)CC(C)(C)C3)cc1,i
CCOCC(=O)Nc1cccc(OC)c1,?
CCN(CC)c1ccc2oc(=O)c(C)nc2c1,0%
COc1ccc2nc(SCC(=O)Nc3ccc(O)c(C(=O)O)c3)[nH]c2c1,i
CCOC(=O)c1cc(-c2ccccc2)sc1NC(=S)N1CCN(C(=O)C2CCCO2)CC1 (stereo unspecified),i
COc1ccc(-c2nn3c(-c4ccccc4Cl)nnc3s2)cc1OC,44%
O=C(c1cc2cc(Br)ccc2oc1=O)N1CCN(CCO)CC1,1%
Cc1cccc(C)c1OCC(=O)Nc1ccc(S(=O)(=O)N2CCCCCC2)cc1,20%
CC1=C(C(=O)Nc2ccccc2)C(c2cccs2)n2nnnc2N1 (stereo unspecified),i
COc1ccccc1CN1CCN(C2CCN(Cc3ccccc3)CC2)CC1,i
Cc1ccoc1C(=O)Nc1cccc2ccccc12,i
COc1ccc2oc(-c3cccc(C)c3)cc(=O)c2c1,12%
COc1cccc(C(=O)N2CCC(Cc3ccccc3)CC2)c1OC,i
Cc1ccc(C(=O)NCc2cnn(C)c2)cc1[N+](=O)[O-],i
Cc1cccc(OCC(=O)Nc2ccc3c(c2)OCCO3)c1,i
CC(NC(=O)c1cc(F)c(F)cc1Cl)C12CC3CC(CC(C3)C1)C2 (stereo unspecified),0%
CSc1nc(C)cc(OCC(=O)Nc2ccc(Cl)cc2)n1,6.7µg/mL*
NC(=O)c1c(NC(=O)C2CC(=O)N(c3ccccc3)C2)sc2c1CCCC2 (stereo unspecified),6%
CCOC(=O)C(=O)Nc1nnc(Cc2ccccc2)s1,i
O=C(Nc1ccc(N2CCN(Cc3ccccc3)CC2)cc1)c1cncc(Br)c1,5%
CN(C)S(=O)(=O)c1ccc(C(=O)Nc2cccc(N3Cc4ccccc4C3)c2)cc1,i
Cc1cc(C)c(S(=O)(=O)N2CCN(S(=O)(=O)c3cc(C)c(C)cc3C)CC2)cc1C,4%
Cc1ccc(NC(=O)c2ccc(NCCN3C(=O)CCC3=O)c([N+](=O)[O-])c2)cc1Cl,i
O=C(Nc1cccc(C(=O)N2CCN(Cc3ccccc3)CC2)c1)c1ccccc1,2%
